HSV replic up: HSV replication enhancement. HSV replication augmentation in cells, fold increase. maximum fold increase. 220,000 tested, 0.005% active;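 active = peak rise of 1.5-fold or more in the series; tested in PC3 cells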;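 also: first round at 10 µM; read as green reporter fluorescence; hits show the peak of a series up to 25 µM; 1 = signal of infected wells without compound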
PKD1 kinase inh: blocks activity of human protein kinase D1. PKD1 kinase fluorescence polarization assay. inhibition, %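 (about 10 µM by stock and volumes)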. 200,000 tested, 0.056% active;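 active = inhibition of 50% or more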;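 also: controls were vehicle for no effect and a reference inhibitor for full effect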
RGS16-Gao HTS: RGS16-Galphao interaction regulator (human) | O15492+P09471 | bead-based flow cytometry RGS16-Galphao binding, fluorescence; actives lie on both sides | binding response (% of control), % at 10 µM | 220,000 tested, 0.38% active;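 active = below 25% or above 175%, edge rows of some plates excepted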;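 also: Galphao activated by GDP with aluminum fluoride before binding; 100% = wells without compound and 0% = beads without RGS; some results beyond the cut were filed as inactive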
Target sequence (O15492 whole entry, looked up): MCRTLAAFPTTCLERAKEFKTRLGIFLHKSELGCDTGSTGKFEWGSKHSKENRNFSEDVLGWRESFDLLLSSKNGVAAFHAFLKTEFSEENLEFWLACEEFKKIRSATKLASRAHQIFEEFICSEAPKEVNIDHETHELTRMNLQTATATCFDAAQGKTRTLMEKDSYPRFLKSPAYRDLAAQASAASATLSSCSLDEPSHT
Target sequence (P09471 whole entry, looked up): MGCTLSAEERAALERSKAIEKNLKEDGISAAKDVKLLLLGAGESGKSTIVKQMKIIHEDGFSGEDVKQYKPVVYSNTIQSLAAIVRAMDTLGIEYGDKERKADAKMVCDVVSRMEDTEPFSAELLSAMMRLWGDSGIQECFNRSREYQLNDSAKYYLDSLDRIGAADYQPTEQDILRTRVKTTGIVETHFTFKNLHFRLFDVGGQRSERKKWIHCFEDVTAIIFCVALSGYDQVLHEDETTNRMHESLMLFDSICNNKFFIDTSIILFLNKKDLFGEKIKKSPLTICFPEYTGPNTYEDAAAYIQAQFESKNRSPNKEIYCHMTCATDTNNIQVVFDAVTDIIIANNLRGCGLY
GALR2 agonist: GALR2 (human) receptor agonism. O43603. activation, %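 (tested at 5 µM)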. 140,000 tested, 0.48% active. AID 803. GALR2-expressing cells, agonist activation read-out;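 active = above mean plus 3 SD of all compounds, about 5% in these data, not always enough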;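 also: 0% = vehicle buffer wells and 100% = reference agonist at full effect; tested in CHO reporter cells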
Target sequence (O43603 whole entry, looked up): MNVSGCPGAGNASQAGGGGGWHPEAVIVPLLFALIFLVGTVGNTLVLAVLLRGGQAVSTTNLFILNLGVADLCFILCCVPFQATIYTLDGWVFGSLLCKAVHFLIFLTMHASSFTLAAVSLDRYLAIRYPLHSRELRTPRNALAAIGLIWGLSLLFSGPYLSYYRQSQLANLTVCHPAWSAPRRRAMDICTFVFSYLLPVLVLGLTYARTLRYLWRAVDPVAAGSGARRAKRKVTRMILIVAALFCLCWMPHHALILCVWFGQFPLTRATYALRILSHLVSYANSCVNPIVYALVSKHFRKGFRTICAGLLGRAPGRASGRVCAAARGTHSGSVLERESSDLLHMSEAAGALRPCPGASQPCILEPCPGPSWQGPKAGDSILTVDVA
Insulin prom inh: TRM-6 insulin promoter activity inhibition; AID 1273; inhibition, % at 2 µM; 130,000 tested, 0.9% active; TRM-6 cells (human fetal islet line), insulin promoter-eGFP reporter, imaging; reporter expression induced with tamoxifen;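 active = inhibition above the mean plus 3 SD, with well images judged a real hit on visual review, cut at about 60% in these data, passing the limit was not always enough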
Insulin prom inh cell count: recorded beside Insulin prom inh, whose call it bears; normalized cell count, %; measured here: cell count, toxicity; reference of the scale not given here;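 cells exposed to compound for 48 h; stained nuclei by imaging scaled within each plate; lower means fewer cells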
HSV replic up primary fold: second read-out of HSV replic up, no call of its own (marks repeat the call); fold increase; compound at 10 µM; measured here: primary screen fold increase 10 uM; tested in PC3 cells;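 GFP signal in the first replicate; 1 = infected wells without compound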
* = called active by the depositor; i = inactive; nt = not tested or not shown.

SMILES	HSV replic up	HSV replic up primary fold	PKD1 kinase inh	RGS16-Gao HTS	GALR2 agonist	Insulin prom inh	Insulin prom inh cell count
CCOc1ccc(N(CC(=O)N/N=C/c2cc([N+](=O)[O-])ccc2Cl)S(C)(=O)=O)cc1	i	0.89	3.0	103.3	-1.1	8.5	93.6
O=C(Cc1c(F)cccc1Cl)Nc1ccc(S(=O)(=O)NCC2CCCO2)cc1 (stereo not given)	i	0.97	4.7	107.3	nt	50.0	77.5
COc1ccccc1-n1c(SCC(=O)Nc2ccc3c(c2)OCO3)nc2c(c1=O)SCC2	nt	nt	-6.7	100.1	-0.3	7.9	99.4
Oc1ccccc1CN(Cc1ccco1)CC(O)COCc1ccc(Cl)cc1 (stereo not given)	nt	nt	-5.7	154.4	-0.1	23.1	89.0
CCOC(=O)C1C(=O)OC(C)(C)C1C(C)C(=O)c1ccc(OC)cc1 (stereo not given)	i	0.76	0.0	103.1	-1.7	-78.6	67.5
CSc1ccccc1C(=O)Nc1ccc(C)c(C)c1	i	0.88	1.5	101.4	-2.7	-8.3	113.2
c1ccc2c(c1)oc1c(N3CCN(Cc4ccc5c(c4)OCO5)CC3)ncnc12	i	0.82	1.9	97.2	-2.4	-10.8	189.2
O=C(CSc1nc2nc3c(cc2c(=O)n1-c1ccccc1)CCCC3)Nc1cccc2ccccc12	i	1.22	7.2	95.9	1.9	-30.6	117.4
CCOC(=O)C1(CC2CC2)CCN(C(=O)c2cccnc2C)CC1	i	0.97	4.1	106.9	nt	nt	nt
COC(=O)CNC(=O)CNC(=O)Nc1ccccc1	i	0.88	-0.8	98.0	-3.6	3.0	109.7
COC(=O)c1ccccc1NC(=O)CN(C1CCCCC1)S(C)(=O)=O	i	0.98	-4.0	100.8	-2.6	31.0	119.1
Cc1[nH]c(=S)[nH]c(=O)c1CCCO	i	0.94	1.6	102.9	nt	nt	nt
CN(C)CCC(=O)c1ccc(F)cc1	i	0.97	nt	99.2	nt	nt	nt
COc1ccc(N=C2SC(C(=O)Nc3ccc(F)cc3)CC(=O)N2C)cc1 (stereo not given)	i	0.97	-4.7	106.0	nt	3.7	100.8
CCOCCCn1c(SCC(=O)NC(C)C)nc2ccccc2c1=O	i	0.97	-4.3	95.7	-1.7	12.9	94.5
CC(C)N1CCC(N2CCN(Cc3ccc(-c4ccccc4Cl)o3)CC2CCO)CC1 (stereo not given)	i	0.92	-1.9	142.8	nt	6.7	85.5
CN(CC(=O)Nc1cc(S(=O)(=O)N2CCOCC2)ccc1Cl)C1CCS(=O)(=O)C1 (stereo not given)	i	0.93	-1.3	100.3	nt	nt	nt
CCOC(=O)c1ccc(NC(=O)c2cn(-c3ccccc3)nc2-c2ccncc2)cc1	i	0.86	-15.2	102.0	-0.4	43.3	106.4
Cc1cccc(NC(=O)CSc2ccc(-c3ccco3)nn2)c1C	i	0.9	1.0	98.8	-1.3	nt	nt
COC(=O)C(NC(=O)c1ccco1)(Nc1nc(C)cs1)C(F)(F)F (stereo not given)	i	1.04	2.0	79.2	-1.5	nt	nt

Five entries from above in a different format:
Values in the order – HSV replic up	HSV replic up primary fold	PKD1 kinase inh	RGS16-Gao HTS	GALR2 agonist	Insulin prom inh	Insulin prom inh cell count
> COc1ccc(N=C2SC(C(=O)Nc3ccc(F)cc3)CC(=O)N2C)cc1 (stereo not given)
    i	0.97	-4.7	106.0	nt	3.7	100.8
> CCOCCCn1c(SCC(=O)NC(C)C)nc2ccccc2c1=O
    i	0.97	-4.3	95.7	-1.7	12.9	94.5
> CC(C)N1CCC(N2CCN(Cc3ccc(-c4ccccc4Cl)o3)CC2CCO)CC1 (stereo not given)
    i	0.92	-1.9	142.8	nt	6.7	85.5
> CN(CC(=O)Nc1cc(S(=O)(=O)N2CCOCC2)ccc1Cl)C1CCS(=O)(=O)C1 (stereo not given)
    i	0.93	-1.3	100.3	nt	nt	nt
> CCOC(=O)c1ccc(NC(=O)c2cn(-c3ccccc3)nc2-c2ccncc2)cc1
    i	0.86	-15.2	102.0	-0.4	43.3	106.4

Continuation:
SMILES	HSV replic up	HSV replic up primary fold	PKD1 kinase inh	RGS16-Gao HTS	GALR2 agonist	Insulin prom inh	Insulin prom inh cell count
CCc1c(C)c2cc(Cl)c(O)c(CN(C)C)c2oc1=O	i	0.57	5.8	102.3	7.2	34.9	93.3
Cc1ccc(NNC(=O)C(=O)N2CCCCC2)cc1	i	0.98	9.7	102.5	0.0	nt	nt
COc1ccccc1OCC(=O)NNC(=O)c1c(-c2ccccc2Cl)noc1C	i	0.94	1.0	97.0	nt	-18.8	120.7
C/C(=N\n1cnnc1)c1ccccc1	i	0.89	0.4	79.6	nt	0.0	76.0
COc1cc(C(=O)NNC(=S)NC(=O)c2ccc3c(c2)OCO3)cc(OC)c1OC	i	0.97	nt	103.0	nt	nt	nt
CCOC(=O)C1=C(COC(=O)C2(C)CC2(Cl)Cl)NC(=O)NC1c1ccc(OC)cc1 (stereo not given)	i	0.94	-5.3	100.7	nt	-33.3	132.6
CCOc1ncccc1C(=O)NCC1COc2ccccc2O1 (stereo not given)	i	0.98	-7.0	97.6	-2.4	-24.2	80.9
Cc1nn(Cc2ccccc2)c(C)c1/C=N/NC(=O)c1ccncc1	i	0.98	nt	107.2	nt	nt	nt
Cc1cc(C)c2sc(N(CCN(C)C)C(=O)c3c(F)cccc3F)nc2c1	i	0.79	7.5	103.5	nt	33.3	190.7
Cc1cc(C)c(NC(=S)N(CCCN2CCOCC2)Cc2cccnc2)c(C)c1	i	0.95	-4.5	99.4	nt	-53.3	97.4
CCN(CC)C(=O)C1=C(C)NC(=S)NC1c1cccs1 (stereo not given)	i	0.99	-5.4	94.7	nt	nt	nt
CCOC(=O)c1ccccc1NC(=O)COC(=O)c1ccc(C)c(S(=O)(=O)N2CCOCC2)c1	i	0.97	3.2	98.6	-0.7	-16.1	45.9
CCOC(=O)c1ccc(Nc2ncccc2[N+](=O)[O-])cc1	i	0.95	-2.7	109.2	nt	nt	nt
O=C(CCSc1ccccc1)NCCSc1ccccn1	i	1.1	14.2	99.6	-0.1	16.7	64.6
Cc1ccc2[nH]c(=O)c(CN(Cc3ccco3)C(=O)c3cccs3)cc2c1	i	1.08	-0.8	99.8	-0.2	25.0	158.5
CC(C(=O)NC1CCCC1)N(C(=O)CS(=O)CC(=O)Nc1ccc(F)cc1)c1ccc2c(c1)OCCO2 (stereo not given)	i	0.92	-4.5	92.2	-2.4	-20.0	144.8
O=C(CNC(=O)C(c1ccccc1)c1ccccc1)OCc1ccccc1	i	0.98	-5.7	99.4	nt	nt	nt
CN=C1S/C(=C\c2cc(C)n(-c3ccccc3F)c2C)C(=O)N1C	i	1.11	-8.0	102.2	-2.6	nt	nt
O=C(NCCc1nc2ccccc2[nH]1)c1ccc([N+](=O)[O-])cc1	i	1.04	nt	109.8	nt	nt	nt
O=C(CCC(=O)c1cccs1)NC1CCCCCC1	i	0.94	-5.5	89.1	nt	nt	nt
Cc1cccc(/C(N)=N/OC(=O)c2ccc(Br)o2)c1	i	0.99	-5.3	112.3	1.0	-86.2	37.7
CC(C)c1nn2c(N)c(/C=C3\C=Nc4ccccc43)c(=O)nc2s1	i	0.89	nt	103.2	nt	nt	nt
Cc1cnc([N+](=O)[O-])n1CCOC(=O)NC(=O)c1ccccc1Cl	i	0.86	5.5	94.4	nt	nt	nt
COC(=O)CCCCCCCCCC[N+]1(C)CCCCC1	i	1.04	2.2	113.3	0.8	-10.3	93.6
CC(=O)N(C(C)=O)n1c(/C=C/c2ccc([N+](=O)[O-])cc2)nc2ccccc2c1=O	i	1.05	-3.2	83.4	nt	nt	nt
CCOC(=O)c1[nH]ncc1CN1CCCC(C(=O)c2ccc(C(C)(C)C)cc2)C1 (stereo not given)	i	0.93	-8.7	223.1	nt	12.5	112.7
CC(=O)c1cccc(NC(=O)C(=O)c2cn(CC(=O)N3CCCCC3)c3ccccc23)c1	i	0.9	-1.0	100.3	nt	-16.7	111.8
CCOc1ccccc1NC(=O)CCS(=O)(=O)c1cccc2nonc12	i	0.98	2.4	101.8	-0.2	nt	nt
C/C(=N/NC(=O)CNC(=O)c1cccc(F)c1)c1ccc2c(c1)CCCC2	i	0.9	10.7	100.4	nt	nt	nt
C/C(=N\NC(=O)COc1ccc(C(C)(C)C)cc1)c1ccc2c(c1)OCCO2	i	0.91	0.4	101.8	-0.7	nt	nt
CC1(C)CC(=O)c2cc(NC(=O)c3ccccc3)c(=O)oc2C1	i	1.13	0.7	99.2	1.2	nt	nt
CC(C)CCNC(=O)c1ccc2c(c1)N(Cc1ccccc1)C(=O)CS2=O (stereo not given)	i	0.76	-7.1	100.9	-0.5	nt	nt
CN(C)S(=O)(=O)c1cccc(NC(=O)CSc2nncn2C)c1	i	0.93	nt	103.2	nt	nt	nt
Clc1cccc(CSc2ccc(-c3cccnc3)nn2)c1	nt	nt	1.3	101.2	nt	-23.1	133.1
OCC1(Cc2ccccc2)CCN(Cc2cnc(-c3cccc4ccccc34)nc2)CC1	i	1.1	-7.4	102.0	nt	nt	nt
Cc1cc(-c2nn(-c3ccccc3F)cc2CN(C)CC(O)CO)c(C)s1 (stereo not given)	i	1	-5.0	101.8	nt	nt	nt
CC(=O)Nc1cc(C(C)C)c(O)c(C(C)C)c1	i	1.04	-9.8	98.8	-1.7	69.8	50.8
Cc1nc2sc(C(c3cccs3)N3CCC4(CC3)OCCO4)c(O)n2n1 (stereo not given)	i	0.98	-8.2	101.8	-2.0	-37.5	76.7
COC(=O)c1ccccc1NC(=O)N1CSC[C@H]1C(=O)OC	i	1.09	-1.2	114.2	-0.8	-17.6	75.5
CCC1CCCCN1C(=O)c1c(-c2ccccc2)noc1C (stereo not given)	i	0.9	-8.2	83.2	-2.1	43.8	157.6
O=C1N(Cc2cccnc2)C[C@@H]2C[C@@H](c3cccc(OC4CCCC4)c3)N3CCC[C@@]123	i	0.95	3.0	101.4	nt	-91.3	64.7
COCCn1c(C)cc(/C=N/NC(=O)c2cccnc2)c1C	i	1.25	-1.9	99.8	nt	-5.9	108.5
CCCCN1C(=O)C2C(c3ccc(OC)cc3O)NC(CC(C)C)(C(=O)O)C2C1=O (stereo not given)	i	0.96	5.5	96.0	-2.3	nt	nt
Cc1cc(C(=O)NNS(=O)(=O)c2cccc(Cl)c2)nn1C(C)(C)C	i	1.16	nt	115.8	nt	nt	nt
Cc1ccc(NC(=O)CNC(=O)c2cccs2)cc1S(=O)(=O)Nc1ccc(Cl)cc1	i	0.92	-16.1	101.0	-1.0	-57.7	108.2
Cc1ccc2nc(NC(=S)NC(=O)c3cccs3)sc2c1	i	0.84	-1.5	104.0	-1.8	16.7	88.9
CC(C)(C)n1nnnc1C(c1cccnc1)N1CCN(C2CCCCC2)CC1 (stereo not given)	i	1.08	-0.2	102.4	-2.2	-14.3	54.7
CN(C(=O)c1ccccn1)c1nnc(-c2cccnc2)s1	i	0.92	8.7	110.2	-0.2	5.4	80.0
CCOC(=O)C1=C(C)Nc2ccccc2N=C1NC(=O)C(c1ccccc1)c1ccccc1	i	1.03	0.3	98.3	nt	-52.9	85.9
Cc1ccc(-c2c(C)sc(=NC(=O)c3ccco3)n2C)cc1	i	1.02	0.3	25.0	0.4	11.1	68.4
CC(=O)N1N=C(c2ccc(C)cc2)OC1c1cccnc1 (stereo not given)	i	0.94	-4.3	99.9	nt	-40.0	121.0
COC(=O)Cn1cc(C#N)c2ccccc21	i	0.98	-0.7	104.3	-4.2	-66.7	110.8
Cc1cc(C(=O)OC(C(=O)Nc2cccc(C(F)(F)F)c2)c2ccccc2)c(C)o1 (stereo not given)	i	0.96	10.8	102.1	-1.5	19.4	126.3
CC(=O)c1ccc(NC(=O)COC(=O)CCc2ccc(S(=O)(=O)N3CCOCC3)cc2)cc1	i	0.96	nt	97.2	nt	nt	nt
CN(c1nc2c(c(=O)n(C)c(=O)n2C)n1CC(=O)c1ccccc1)C1CCCCC1	i	0.9	-19.5	103.6	-2.2	40.0	103.2
COc1ccccc1-c1ccc(/C=C2/C=C(CC(C)C)OC2=O)o1	i	1.16	-2.5	104.6	-2.5	28.6	125.3
COc1cnn(-c2ccc(C)cc2)c(=O)c1Cl	i	1.11	-3.3	93.0	nt	-145.4	92.9
CCOC(=O)C1CCN(C(=S)NC2CCCC2)CC1	i	0.95	-1.6	101.8	nt	nt	nt
COCC(=O)NC1(c2nnnn2CCOC(=O)Nc2ccc(Cl)cc2)CCCCC1	i	0.98	-3.6	98.1	nt	nt	nt
O=C(CCn1nc(-c2ccccc2)ccc1=O)N1CCN(c2ccccn2)CC1	nt	nt	3.3	-515.5	-0.6	18.5	77.0
CCOc1cc(/C=N/NC(=O)CSc2nncn2C)ccc1OCC(N)=O	i	0.77	nt	98.7	nt	nt	nt

Source: PubChem BioAssay
